NPYLR7 ag – agonists of mosquito NPYLR7 receptor, primary screen, cell-based, Aedes aegypti, calcium fluorescence, mosquito biting behavior. AID 1259423, 2018. Aedes aegypti neuropeptide Y-like receptor 7 (NPYLR7). activation, % at 10 µM. HEK293T NPYLR7/Galpha15, GCaMP6s calcium fluorescence. 270,000 tested, 0.15% active; in the data active = activation above about 40%;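 note: 0% = vehicle and 100% = reference agonist at the receptor; some compounds past the cut are filed as inactive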
NPYLR7 ag max-min – further read-out of NPYLR7 ag, marked with its call; activation, %; measured here: Max-Min RFU normalised activation; some inactives read as strong as hits;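 span of the calcium signal over five minutes; 0% = vehicle and 100% = native peptide agonist; compound fluorescence can raise it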
Numbers without * were called inactive. The list is partial, so the mix of outcomes need not match the whole.

Results for COc1ccc(NS(=O)(=O)c2ccc(F)c(F)c2F)cc1S(N)(=O)=O ?
NPYLR7 ag: -7; NPYLR7 ag max-min: -5

What do the screens show for `CC(C)c1ccc(NC(=O)c2ccc(-n3nc(-c4cccc(C(F)(F)F)c4)cc3N)cc2)cc1`?
NPYLR7 ag: -16; NPYLR7 ag max-min: -24

How did Cc1[nH]nc2c1C1(CCCCC1)C(C#N)C(=N)O2 (centres undefined) do in these assays?
NPYLR7 ag: 9; NPYLR7 ag max-min: 6

What do the screens show for `O=C(CNc1cc(F)ccc1-n1cccn1)NCc1ccco1`?
NPYLR7 ag: -7; NPYLR7 ag max-min: -9

What do the screens show for `Cc1ccc(N(CN2C(=O)c3ccc([N+](=O)[O-])cc3C2=O)C(=O)c2ccco2)cc1`?
NPYLR7 ag: 17; NPYLR7 ag max-min: 15

What do the screens show for `N#Cc1cc(S(N)(=O)=O)ccc1NC1CCN(CC(F)(F)F)C1` (centres undefined)?
NPYLR7 ag: 13; NPYLR7 ag max-min: 10

Results for Cn1nnc2c(N3CCN(C(=O)COc4ccccc4)CC3)ncnc21 ?
NPYLR7 ag: 0; NPYLR7 ag max-min: 13

Results for Cn1ccnc1CN1CCOC(Cc2cccc(C(F)(F)F)c2)C1 (centres undefined) ?
NPYLR7 ag: 3; NPYLR7 ag max-min: -2

Results for NC(=O)c1cccc(CC2CCN(C(=O)CCn3ccccc3=O)C2)c1 (centres undefined) ?
NPYLR7 ag: -3; NPYLR7 ag max-min: -8

What do the screens show for `O=S1(=O)CC2C(C1)N(c1cccc(C(F)(F)F)c1)C(=S)N2c1ccccc1` (centres undefined)?
NPYLR7 ag: 3; NPYLR7 ag max-min: -1

What do the screens show for `Cc1ccc(C(N)=NOC(=O)CCc2ccccc2)cc1`?
NPYLR7 ag: 6; NPYLR7 ag max-min: 7

Results for O=C(Oc1ccc(Br)cc1)c1ccc(Cl)cc1[N+](=O)[O-] ?
NPYLR7 ag: -6; NPYLR7 ag max-min: -11

How did Cc1cc(C(=O)Nc2ccc(C)c(C)c2)n2nc(C(C)(C)C)cc2n1 do in these assays?
NPYLR7 ag: 0; NPYLR7 ag max-min: -1

How did COCc1cc(C)nc(N/N=C/c2ccc(C(C)C)cc2)c1C#N do in these assays?
NPYLR7 ag: -22; NPYLR7 ag max-min: -26

How did CCOCCn1c(N2CCN(Cc3cc(C)ccc3C)CC2)nc2c1c(=O)[nH]c(=O)n2C do in these assays?
NPYLR7 ag: -10; NPYLR7 ag max-min: -10

What do the screens show for `CCc1sc2[nH]c(=S)n(-c3cccc(OC)c3)c(=O)c2c1C`?
NPYLR7 ag: 21; NPYLR7 ag max-min: 19

How did Cc1nn(-c2ccccc2)c(N)c1N=Nc1ccccc1OC(F)F do in these assays?
NPYLR7 ag: 11; NPYLR7 ag max-min: 8

How did Cc1ccc(-c2noc(CCC(=O)NCc3nnc4n3CCC4)n2)cc1 do in these assays?
NPYLR7 ag: 4; NPYLR7 ag max-min: 4

What do the screens show for `O=C(OCCOCCO)c1ccc(O)c(Br)c1`?
NPYLR7 ag: 7; NPYLR7 ag max-min: 11

What do the screens show for `O=C(C1CCCC1)N(Cc1ccccc1Cl)CC1CC(c2ccccc2Cl)=NO1` (centres undefined)?
NPYLR7 ag: 16; NPYLR7 ag max-min: 32

How did O=c1oc2c3c4c(cc2cc1-c1nnc(Nc2ccccc2)s1)CCCN4CCC3 do in these assays?
NPYLR7 ag: 2; NPYLR7 ag max-min: -3

How did Cc1cc(-c2nnc(NC(=O)c3ccc(-c4ccccc4)cc3)o2)nn1C do in these assays?
NPYLR7 ag: -7; NPYLR7 ag max-min: -14

Results for CN(CCCn1cccn1)[C@@H]1c2ccccc2C2(CCNCC2)[C@H]1O ?
NPYLR7 ag: 6; NPYLR7 ag max-min: -2

How did O=C1Sc2ccc(S(=O)(=O)N3CCOCC3)c3cccc1c23 do in these assays?
NPYLR7 ag: -1; NPYLR7 ag max-min: -3

How did CCCCCCCCCC(=O)Nc1ccc(N2CCCC2)c(C(=O)NCC(C)C)c1 do in these assays?
NPYLR7 ag: 6; NPYLR7 ag max-min: 8

What do the screens show for `S=c1n(CN2CCOCC2)nc(C2CC2)n1Cc1ccccc1`?
NPYLR7 ag: -3; NPYLR7 ag max-min: 0

What do the screens show for `COc1ccc(-c2[nH]ncc2-c2ncc[nH]2)cc1`?
NPYLR7 ag: 4; NPYLR7 ag max-min: 2

How did CCc1nn2c(=O)cc(CSc3nnnn3C)nc2s1 do in these assays?
NPYLR7 ag: 2; NPYLR7 ag max-min: 3

Results for Cc1cc(CN(C)C(=O)c2coc(COc3ccc4sc(C)nc4c3)n2)on1 ?
NPYLR7 ag: -7; NPYLR7 ag max-min: -11

Results for O=C(NCc1ccc(Cn2cccn2)cc1)N1CCCC(C(=O)N2CCCC2)C1 (centres undefined) ?
NPYLR7 ag: 1; NPYLR7 ag max-min: -8

A run of entries taken from the entries so far, as a working copy:
What do the screens show for `O=C(OCCOCCO)c1ccc(O)c(Br)c1`?
NPYLR7 ag: 7; NPYLR7 ag max-min: 11

What do the screens show for `O=C(C1CCCC1)N(Cc1ccccc1Cl)CC1CC(c2ccccc2Cl)=NO1` (centres undefined)?
NPYLR7 ag: 16; NPYLR7 ag max-min: 32

How did O=c1oc2c3c4c(cc2cc1-c1nnc(Nc2ccccc2)s1)CCCN4CCC3 do in these assays?
NPYLR7 ag: 2; NPYLR7 ag max-min: -3

How did Cc1cc(-c2nnc(NC(=O)c3ccc(-c4ccccc4)cc3)o2)nn1C do in these assays?
NPYLR7 ag: -7; NPYLR7 ag max-min: -14

Results for CN(CCCn1cccn1)[C@@H]1c2ccccc2C2(CCNCC2)[C@H]1O ?
NPYLR7 ag: 6; NPYLR7 ag max-min: -2

How did O=C1Sc2ccc(S(=O)(=O)N3CCOCC3)c3cccc1c23 do in these assays?
NPYLR7 ag: -1; NPYLR7 ag max-min: -3

How did CCCCCCCCCC(=O)Nc1ccc(N2CCCC2)c(C(=O)NCC(C)C)c1 do in these assays?
NPYLR7 ag: 6; NPYLR7 ag max-min: 8

What do the screens show for `S=c1n(CN2CCOCC2)nc(C2CC2)n1Cc1ccccc1`?
NPYLR7 ag: -3; NPYLR7 ag max-min: 0

What do the screens show for `COc1ccc(-c2[nH]ncc2-c2ncc[nH]2)cc1`?
NPYLR7 ag: 4; NPYLR7 ag max-min: 2

How did CCc1nn2c(=O)cc(CSc3nnnn3C)nc2s1 do in these assays?
NPYLR7 ag: 2; NPYLR7 ag max-min: 3

Results for Cc1cc(CN(C)C(=O)c2coc(COc3ccc4sc(C)nc4c3)n2)on1 ?
NPYLR7 ag: -7; NPYLR7 ag max-min: -11

Results for O=C(NCc1ccc(Cn2cccn2)cc1)N1CCCC(C(=O)N2CCCC2)C1 (centres undefined) ?
NPYLR7 ag: 1; NPYLR7 ag max-min: -8

Going on with the list.
How did CCCCOc1ccc(C(=O)NCC2Cc3cc(F)cc(F)c3O2)cc1 (centres undefined) do in these assays?
NPYLR7 ag: 0; NPYLR7 ag max-min: -3

What do the screens show for `CS(=O)(=O)c1cccc(C(=O)N2CCN(C(=O)Nc3ccc(F)cc3)CC2)c1`?
NPYLR7 ag: 9; NPYLR7 ag max-min: 8

Results for CCN(C(=O)c1cnc2n(c1=O)CCS2)c1ccccc1 ?
NPYLR7 ag: -3; NPYLR7 ag max-min: -4

How did CC(=O)NC(CC(=O)N1CCCC1C1CCCN1C(=O)OC(C)(C)C)c1cccs1 (centres undefined) do in these assays?
NPYLR7 ag: 16; NPYLR7 ag max-min: 13

Results for CCC(=O)Nc1ccc(C(=O)Cn2cc(Br)cn2)cc1 ?
NPYLR7 ag: 7; NPYLR7 ag max-min: 5

How did COc1ccc(CCC2CCCN(C(=O)CCC(F)(F)F)C2)cc1 (centres undefined) do in these assays?
NPYLR7 ag: 12; NPYLR7 ag max-min: -1

What do the screens show for `CC1CC(C)CN(Cc2csc(NC(=O)C3CCN(C(=O)C4CC4)CC3)n2)C1` (centres undefined)?
NPYLR7 ag: 1; NPYLR7 ag max-min: -3

What do the screens show for `Cc1ccc(C(=O)N/N=C2\CC(C)CC(C)(C)C2)c(C)c1` (centres undefined)?
NPYLR7 ag: 0; NPYLR7 ag max-min: -2

What do the screens show for `O=c1oc2c(CN3CCN(CCO)CC3)c(O)ccc2cc1-c1ccccc1`?
NPYLR7 ag: 4; NPYLR7 ag max-min: 0

Results for Cc1cccc(N2CCCn3c2nc2c3c(=O)n(CCN3CCCCC3)c(=O)n2C)c1 ?
NPYLR7 ag: 11; NPYLR7 ag max-min: 4

3 entries already listed, ordered by molecular weight, lowest first.
Results for CCN(C(=O)c1cnc2n(c1=O)CCS2)c1ccccc1 ?
NPYLR7 ag: -3; NPYLR7 ag max-min: -4

Results for CCC(=O)Nc1ccc(C(=O)Cn2cc(Br)cn2)cc1 ?
NPYLR7 ag: 7; NPYLR7 ag max-min: 5

What do the screens show for `CS(=O)(=O)c1cccc(C(=O)N2CCN(C(=O)Nc3ccc(F)cc3)CC2)c1`?
NPYLR7 ag: 9; NPYLR7 ag max-min: 8

Going on with the list.
How did NC(=NOC(=O)N1CCOCC1)c1ccccn1 do in these assays?
NPYLR7 ag: -6; NPYLR7 ag max-min: -12

What do the screens show for `O=C1c2ccccc2S(=O)(=O)NN1Cc1ccc(F)cc1`?
NPYLR7 ag: 3; NPYLR7 ag max-min: 1

How did CSCC1CCN(S(=O)(=O)c2cc(C)c(F)cc2F)C1 (centres undefined) do in these assays?
NPYLR7 ag: 1; NPYLR7 ag max-min: 26

What do the screens show for `Cc1ccccc1-c1onc(C)c1C(=O)NCc1ccccn1`?
NPYLR7 ag: 2; NPYLR7 ag max-min: 3

How did COCCCN(CC(=O)N1CCc2sccc2C1c1ccc(OC)cc1)C(=O)c1cccc(C(F)(F)F)c1 (centres undefined) do in these assays?
NPYLR7 ag: 19; NPYLR7 ag max-min: 21

Results for CCOC(=O)c1cnc2cc(C(F)(F)F)ccc2c1Nc1ccc(S(=O)(=O)NC)cc1 ?
NPYLR7 ag: 4; NPYLR7 ag max-min: 4

How did COc1ccc(C(=O)N2CCN(Cc3ccc(-c4ccn[nH]4)o3)CC2)cc1 do in these assays?
NPYLR7 ag: 4; NPYLR7 ag max-min: -1

What do the screens show for `Cn1ccnc1CN(C1CC1)C1CCN(C(=O)c2cccnc2)CC1`?
NPYLR7 ag: 9; NPYLR7 ag max-min: -5

How did CCOc1ccc(N2C(=O)CSC2c2ccc(NS(=O)(=O)c3ccc(C(C)(C)C)cc3)cc2)cc1 (centres undefined) do in these assays?
NPYLR7 ag: 14; NPYLR7 ag max-min: 13

What do the screens show for `O=C(CC1CCCCC1)NCc1ccn(-c2ccccc2F)n1`?
NPYLR7 ag: 3; NPYLR7 ag max-min: 1

What do the screens show for `Cc1nn(C(C)CC(=O)O)c(C)c1Br` (centres undefined)?
NPYLR7 ag: 0; NPYLR7 ag max-min: -1

What do the screens show for `Cc1ccc2cc(NC(=O)C3(C)CCN3C(C)C)ccc2n1` (centres undefined)?
NPYLR7 ag: -8; NPYLR7 ag max-min: -8

What do the screens show for `O=C(c1ccc2c(c1)OCCO2)C1CCN(Cc2cc3c(cc2O)OCO3)CC1`?
NPYLR7 ag: 6; NPYLR7 ag max-min: 6

Results for Cc1ccccc1C1c2ccsc2CCN1C(C)C(=O)N1CCN(C(=O)c2ccc(Cl)c(Cl)c2)CC1 (centres undefined) ?
NPYLR7 ag: 7; NPYLR7 ag max-min: -4

Results for CC(Oc1ccc(Cl)cc1Cl)C(=O)N1CCCC(C(=O)Nc2ccccc2)C1 (centres undefined) ?
NPYLR7 ag: -2; NPYLR7 ag max-min: -2

Results for CCC(CC)n1ncc(C)c1NC(=O)c1cc(C)nc(C)n1 ?
NPYLR7 ag: 11; NPYLR7 ag max-min: 8

What do the screens show for `CCN1CCN(C(=O)C(C)Sc2nc3ccc(Cl)cc3c(=O)n2CC(C)C)CC1` (centres undefined)?
NPYLR7 ag: -3; NPYLR7 ag max-min: -5

What do the screens show for `Cc1ccc(NC(=O)c2cc(-c3ccc(C)c(C)c3)nn2-c2cccc(Cl)c2)cc1`?
NPYLR7 ag: -2; NPYLR7 ag max-min: 4

How did CCC(C)(C)NC(=O)CN1CCN(S(=O)(=O)c2ccccc2F)CC1 do in these assays?
NPYLR7 ag: 6; NPYLR7 ag max-min: 6

What do the screens show for `CC(C)(C)n1nnnc1SC1CCCCC1`?
NPYLR7 ag: 5; NPYLR7 ag max-min: 4

What do the screens show for `COCC(=O)N(Cc1ccccc1)Cc1c(-c2ccc(F)cc2)noc1N1CCN(C)CC1`?
NPYLR7 ag: 10; NPYLR7 ag max-min: 15

Results for CCN1C(=S)NC(c2ccc(NC(=O)c3ccc(OC)cc3OC)cc2)C(C(=O)OCC(C)C)=C1C (centres undefined) ?
NPYLR7 ag: 18; NPYLR7 ag max-min: 14

Results for CC(C)Nc1ccc(C(=O)Nc2cccc3c2CCCC3)cn1 ?
NPYLR7 ag: -11; NPYLR7 ag max-min: -20

What do the screens show for `C[C@@H]1CN(C(=O)c2cccc(NCC(=O)O)c2)C[C@H](C)O1`?
NPYLR7 ag: 2; NPYLR7 ag max-min: -4

Source: PubChem BioAssay (Fisher Drug Discovery Resource Center)
